Insulin prom inh = inhibitors of insulin promoter-driven GFP, primary screen, imaging, TRM-6 cells (human fetal islet line), eGFP reporter, cell count; reporter expression induced with tamoxifen; inhibition, % at 2 µM; 130,000 tested, 0.9% active;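 active = inhibition above the mean plus 3 SD, with well images judged a real hit on visual review, cut at about 60% in these data, passing the limit was not always enough; inconclusive = inhibition over the cutoff but images rejected on review; inactive = inhibition not above the cutoff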
GALR2 agonist = GALR2 receptor agonists, primary screen, cell-based. Galanin receptor type 2 (Homo sapiens), O43603. GALR2-expressing cells, agonist activation read-out. activation, %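 (tested at 5 µM)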. 140,000 tested, 0.48% active. AID 803, 2007;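 active = above mean plus 3 SD of all compounds, about 5% in these data, not always enough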;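 note: 0% = vehicle buffer wells and 100% = reference agonist at full effect; tested in CHO reporter cells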
Target sequence (O43603 whole entry, looked up): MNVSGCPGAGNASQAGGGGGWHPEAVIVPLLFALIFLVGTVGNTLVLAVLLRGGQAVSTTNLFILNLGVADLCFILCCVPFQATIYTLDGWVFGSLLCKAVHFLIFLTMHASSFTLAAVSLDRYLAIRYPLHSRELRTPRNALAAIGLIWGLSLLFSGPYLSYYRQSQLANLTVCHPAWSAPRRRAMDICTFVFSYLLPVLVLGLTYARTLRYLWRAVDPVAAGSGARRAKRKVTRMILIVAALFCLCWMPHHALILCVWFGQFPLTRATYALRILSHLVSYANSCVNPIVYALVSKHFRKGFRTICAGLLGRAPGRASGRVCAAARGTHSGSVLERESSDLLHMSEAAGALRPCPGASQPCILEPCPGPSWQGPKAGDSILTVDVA
PKD1 inh = inhibitors of human PKD1 kinase, biochemical, fluorescence polarization; AID 797, 2007; Serine/threonine-protein kinase D1 (Homo sapiens), Q15139; PKD1 kinase fluorescence polarization assay; 200,000 tested, 0.056% active; inhibition, %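 (about 10 µM by stock and volumes)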;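 active = inhibition of 50% or more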;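 note: controls were vehicle for no effect and a reference inhibitor for full effect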
HSV replic up = enhancers of HSV replication in host cells, fold increase, host cell viability | HSV replication augmentation in cells | maximum fold increase | 220,000 tested, 0.005% active;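 active = peak rise of 1.5-fold or more in the series; inconclusive = self-fluorescent or not available for retest; tested in PC3 cells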;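 note: first round at 10 µM; read as green reporter fluorescence; hits show the peak of a series up to 25 µM; 1 = signal of infected wells without compound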
RGS16-Gao = modulators of RGS16 binding to Galphao, primary screen, biochemical, human proteins, multiplexed bead flow cytometry; 220,000 tested, 0.38% active; binding response (% of control), % at 10 µM; Regulator of G-protein signaling 16 (Homo sapiens) + Guanine nucleotide-binding protein …; AID 1441, 2008; bead-based flow cytometry RGS16-Galphao binding, fluorescence; actives lie on both sides;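 active = below 25% or above 175%, edge rows of some plates excepted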;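 note: Galphao activated by GDP with aluminum fluoride before binding; 100% = wells without compound and 0% = beads without RGS; some results beyond the cut were filed as inactive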
Target sequence (O15492 whole entry, looked up): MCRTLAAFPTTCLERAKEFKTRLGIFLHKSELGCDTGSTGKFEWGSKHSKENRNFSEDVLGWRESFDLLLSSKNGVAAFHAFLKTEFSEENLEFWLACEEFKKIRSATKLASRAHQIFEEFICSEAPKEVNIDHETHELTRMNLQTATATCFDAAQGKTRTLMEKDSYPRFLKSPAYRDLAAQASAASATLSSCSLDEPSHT
Target sequence (P09471 whole entry, looked up): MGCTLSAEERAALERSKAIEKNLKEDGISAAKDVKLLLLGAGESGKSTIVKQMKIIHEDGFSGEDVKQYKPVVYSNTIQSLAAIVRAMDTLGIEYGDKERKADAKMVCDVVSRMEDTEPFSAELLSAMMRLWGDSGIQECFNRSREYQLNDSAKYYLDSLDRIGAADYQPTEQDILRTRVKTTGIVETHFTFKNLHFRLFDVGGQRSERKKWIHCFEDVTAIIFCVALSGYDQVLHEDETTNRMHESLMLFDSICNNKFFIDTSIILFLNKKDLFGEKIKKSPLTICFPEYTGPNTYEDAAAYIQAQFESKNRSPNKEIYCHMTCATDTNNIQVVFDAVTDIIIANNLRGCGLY
Insulin prom inh cell count = further read-out of Insulin prom inh, marked with its call; normalized cell count, %; measured here: cell count, toxicity; reference of the scale not given here;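 cells exposed to compound for 48 h; stained nuclei by imaging scaled within each plate; lower means fewer cells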
HSV replic up primary fold = further read-out of HSV replic up, marked with its call; fold increase; compound at 10 µM; measured here: primary screen fold increase 10 uM; tested in PC3 cells;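 GFP signal in the first replicate; 1 = infected wells without compound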
* = called active by the depositor; i = inactive; ? = inconclusive; / = no result given.

SMILES	Insulin prom inh	Insulin prom inh cell count	GALR2 agonist	PKD1 inh	HSV replic up	HSV replic up primary fold	RGS16-Gao
CC1CCN(c2nc3c(c(=O)[nH]c(=O)n3C)n2CCSc2nc3ccccc3o2)CC1	25	107	-2.6	-3	i	1.1	102
COc1ccccc1NS(=O)(=O)c1cccc(NC(=O)NCCCl)c1	/	/	/	/	i	1.1	99
C=CCn1c(SCC(=O)Nc2ccccc2OC)nnc1-c1ccco1	-35	159	-2.0	-7	i	0.92	99
Cn1cc(Br)c(C(=O)N2CCc3ccccc32)n1	0	65	-0.6	-11	i	0.99	71
COC(=O)C1=C(NC(=O)c2ccc(C)c(C)c2)CCS1	45	163	0.4	-1	i	0.9	106
O=C(Cc1cccs1)N1CCCC(c2nc(-c3ccc(S(=O)(=O)N4CCCC4)cc3)no2)C1 (stereo unspecified)	/	/	-0.8	-2	i	0.97	96
O=C1OCCC1Sc1nnc(-c2ccc3c(c2)OCO3)n1-c1ccccc1 (stereo unspecified)	-58	97	-2.1	-7	i	0.93	73
CCOc1ccc(N(CC(=O)NCCCOC)S(C)(=O)=O)cc1	-14	79	-0.7	-9	i	0.94	112
Cn1c(=O)[nH]c(=O)c2c1nc(CN1CCN(c3ccc(F)cc3)CC1)n2CCCc1ccccc1	-6	105	0.0	11	i	0.86	103
CCNC(=O)Nc1cc2nc(C)n(Cc3ccc(Br)cc3)c2nc1C	0	108	1.1	1	i	0.91	185

Brought forward from above: 3 entries, then new ones.
SMILES	Insulin prom inh	Insulin prom inh cell count	GALR2 agonist	PKD1 inh	HSV replic up	HSV replic up primary fold	RGS16-Gao
CCOc1ccc(N(CC(=O)NCCCOC)S(C)(=O)=O)cc1	-14	79	-0.7	-9	i	0.94	112
Cn1c(=O)[nH]c(=O)c2c1nc(CN1CCN(c3ccc(F)cc3)CC1)n2CCCc1ccccc1	-6	105	0.0	11	i	0.86	103
CCNC(=O)Nc1cc2nc(C)n(Cc3ccc(Br)cc3)c2nc1C	0	108	1.1	1	i	0.91	185
CC1CCCCN1Cc1ccc(N)cc1 (stereo unspecified)	13	167	-2.5	-7	i	0.81	97
CCOc1ccccc1N=C1NC(=O)CS1	-138	89	-1.4	-5	i	0.91	103
COCCNC(=O)c1ccc(N(C)S(=O)(=O)c2ccc(OC)c(OC)c2)cc1	-193	39	-1.2	7	i	1.2	93
Cc1c(NC(=S)NC(=O)COc2ccccc2)c(=O)n(-c2ccccc2)n1C	32	127	-0.7	-2	i	0.97	108
CCC(OC(=O)c1nsc(Cl)c1Cl)C(=O)NC(C)(C)CC (stereo unspecified)	/	/	/	7	i	0.99	102
COC(=O)CCC(=O)Nc1ccc(S(=O)(=O)N2CCCCCC2)cc1	23	48	-1.5	-4	i	1	105
Cc1cc(C)c2[nH]c(=O)c(C(c3nnnn3CC3CCCO3)N3CCC(C)CC3)cc2c1 (stereo unspecified)	/	/	-0.3	-15	i	0.93	99
CC1CC(C)(C)N(C(=O)NC2CCCCC2)c2ccccc21 (stereo unspecified)	49	85	-1.5	5	i	0.85	81
Cn1ncc(Cl)c1C(=O)Nc1sc2c(c1C(N)=O)CCC2	14	148	-1.6	-3	i	0.88	95
CSc1ccccc1NC(=O)c1ccccc1N(Cc1ccccc1)S(C)(=O)=O	24	65	-3.3	-7	i	0.99	102
CCOc1cc(/C=C2/NC(=O)NC2=O)cc([N+](=O)[O-])c1O	/	/	/	2	i	0.87	100
Cc1cc(C)nc(NS(=O)(=O)c2cccs2)c1	-21	97	-1.6	-11	i	0.99	103
Cc1cc2ccccc2n1CCNC(=O)C(C)Oc1ccccc1 (stereo unspecified)	/	/	-1.7	1	i	0.99	101
COc1cc(/C=N/n2cc(-c3ccccc3)[nH]c2=S)cc(OC)c1O	/	/	/	/	i	0.82	101
Cc1nc(NC(=O)CN(C)S(=O)(=O)c2ccc(Br)cc2)sc1C	26	88	-1.9	-4	i	0.9	103
Cc1cc(=O)oc2ccc(OC(=O)CN3C(=O)c4cccc([N+](=O)[O-])c4C3=O)cc12	-12	126	0.1	14	i	1	102
Cc1ccc(NC(=O)Nc2cnccn2)cc1Cl	20	117	/	19	i	0.89	100
CCCCOCCCNC(=O)c1ccccc1OCC	35	103	-0.7	-4	i	0.94	95
CCN(CC)c1ncc(C#N)c(N)n1	/	/	/	/	i	0.85	104
O=c1oc2ccccc2c(Nc2ccc3ncccc3c2)c1[N+](=O)[O-]	23	124	0.4	7	i	0.94	104
O=C(CCc1ccccc1)NNC(=O)c1cccc(F)c1	4	65	/	-2	i	1	96
CC(CC1C(C#N)=C(N)SC(N)=C1C#N)c1ccccc1 (stereo unspecified)	24	105	-1.1	-3	i	1.1	97
O=C(COc1ccccc1)NC1=NCCS1	-16	128	-1.1	-7	i	1	123
Cc1ccc(Cl)cc1N1CCN(Cc2nc3c(c(=O)[nH]c(=O)n3C)n2CCc2ccccc2)CC1	-10	90	-2.5	0	i	0.72	101
COc1ccc(-c2[nH]ncc2/C=N/NC(=O)c2cc(Br)ccc2O)c(OC)c1	/	/	-1.2	-1	i	1.1	98
COc1ccc(C(=O)OCC(=O)Nc2cc(C)c(C)cc2[N+](=O)[O-])cc1	-33	126	-1.8	11	i	0.99	88
COc1ccc(C(C(=O)Nc2ccc(F)cc2)N(C(=O)Cn2nnc3ccccc32)C2CC2)cc1 (stereo unspecified)	-88	136	-2.0	-6	/	/	107
CC(C)C(c1nnnn1C1CCCCC1)N1CCc2ccccc21 (stereo unspecified)	36	108	-2.3	-9	i	1	108
O=C(CC1COc2ccccc2O1)NCc1ccccc1 (stereo unspecified)	-6	138	-0.2	-2	i	0.79	29
COC(=O)c1c(C)[nH]c(O)c1C=Nc1ccc(Oc2ccccc2)cc1	/	/	/	-1	?	/	103

Looked up by structure from above:
SMILES	Insulin prom inh	Insulin prom inh cell count	GALR2 agonist	PKD1 inh	HSV replic up	HSV replic up primary fold	RGS16-Gao
Cc1ccc(Cl)cc1N1CCN(Cc2nc3c(c(=O)[nH]c(=O)n3C)n2CCc2ccccc2)CC1	-10	90	-2.5	0	i	0.72	101
CC(CC1C(C#N)=C(N)SC(N)=C1C#N)c1ccccc1 (stereo unspecified)	24	105	-1.1	-3	i	1.1	97
O=C(CCc1ccccc1)NNC(=O)c1cccc(F)c1	4	65	/	-2	i	1	96
COc1ccc(C(C(=O)Nc2ccc(F)cc2)N(C(=O)Cn2nnc3ccccc32)C2CC2)cc1 (stereo unspecified)	-88	136	-2.0	-6	/	/	107
COc1ccc(C(=O)OCC(=O)Nc2cc(C)c(C)cc2[N+](=O)[O-])cc1	-33	126	-1.8	11	i	0.99	88
O=C(CC1COc2ccccc2O1)NCc1ccccc1 (stereo unspecified)	-6	138	-0.2	-2	i	0.79	29

Carrying on:
SMILES	Insulin prom inh	Insulin prom inh cell count	GALR2 agonist	PKD1 inh	HSV replic up	HSV replic up primary fold	RGS16-Gao
CSc1ccccc1COC(=O)Nc1ccccc1C	/	/	/	-3	i	0.95	98
O=C(Nc1ccc(NC(=O)C2CC2)nc1)c1ccccn1	/	/	-1.6	-7	i	0.98	104
CCCOc1ccccc1-n1sc2c(c1=S)-c1cc(OC)cc3c1N(C(=O)C3=O)C2(C)C	-14	93	-1.1	1	i	1	43
COC(=O)c1sccc1NC(=O)CN1CCN(c2ccc(F)cc2)CC1	-9	117	0.0	3	i	0.88	100
Cc1ccccc1OCC(=O)Nc1cccc(C(=O)O)c1	-15	85	/	-6	i	1.1	96
CCOc1cccc(N2C(=O)CC(N(CCc3ccc(OC)c(OC)c3)C(=O)CC)C2=O)c1 (stereo unspecified)	23	114	-0.7	2	i	0.88	99
CCn1nc(C)c(CNC(=O)CC2C(=O)NCCN2CC(C)(C)C)c1C (stereo unspecified)	26	164	/	-3	i	1	106
Cc1[nH]c2ccccc2c1/C=N/Nc1ccccn1	-28	159	/	1	i	0.98	101
Cc1cc(C)n(-c2c(F)c(F)c(CN3CCCCC3)c(F)c2F)n1	-52	139	-2.0	-10	i	1	106
COC(=O)Cn1c(=NC(=O)c2nc3ccccc3s2)sc2cc(S(C)(=O)=O)ccc21	/	/	39*	-11	i	0.65	136
CCc1ccc(-n2c(Cc3ccccc3)n[nH]c2=S)cc1	/	/	/	-2	i	0.94	87
OCCN1CCN(C(=S)c2ccc(Cl)cc2)CC1	40	107	-3.1	-8	i	0.92	91
CCC(=O)N1CCCc2cc(S(=O)(=O)N3CCN(c4ccccn4)CC3)ccc21	/	/	-0.8	-13	i	1.1	105
Cc1ccc(-n2c(-c3ccco3)nc3nc4ccccc4nc32)cc1F	/	/	-1.0	1	/	/	99
COC(=O)c1cc(Br)c(=O)n(-c2cc(C)on2)c1	/	/	-0.1	-3	i	0.97	102
CS(=O)(=O)c1ccc2nc(NC(=O)CN3CCCCCC3)sc2c1	55	147	-2.1	-4	i	0.95	103
O=C(c1cccs1)N1CCCN(c2ncnc3scc(-c4ccccc4)c23)CC1	/	/	/	/	i	0.99	101
CSc1nc2nccc(-c3ccc4c(c3)OCO4)n2n1	/	/	/	-2	i	0.95	97
O=C(/C=C/c1ccc(Cl)cc1Cl)N1CCN(c2ccc([N+](=O)[O-])c(N3CCOCC3)c2)CC1	13	41	-3.5	7	i	1	100
CCOc1ccc(C2C3=C(CCCC3=O)Nc3nc(C(F)(F)F)nn32)cc1OC (stereo unspecified)	43	85	-0.4	-16	i	0.93	103
COC(=O)c1c(NC(=O)c2c(C)noc2C)sc2c1CCCCCC2	-352	66	0.1	-11	i	1	98
CCC1Oc2ccc(C)cc2N(CC(=O)NCCc2ccc(OC)c(OC)c2)C1=O (stereo unspecified)	/	/	-1.6	-2	i	0.86	/
COCC(=O)N1CCCN(c2nc3c(C)cccc3cc2C#N)CC1	36	80	-1.1	4	i	0.55	101
CCc1ccc(CNC(=O)CCc2nc(-c3cccs3)no2)cc1	/	/	-0.7	-9	i	0.78	101
Cc1ccc(C(=O)NNc2nc3ccccc3nc2C(F)(F)F)cc1	11	125	-2.6	9	i	0.9	99
CCCC[n+]1c(C)sc2cc(OC)ccc21	/	/	/	2	i	1	106
CCN(CC)CCn1c(=S)[nH]c2cc3c(cc2c1=O)OCO3	-27	138	-1.3	-6	i	0.84	94
O=C(Cn1ccc2ccccc2c1=O)NCCC(=O)N1CCN(c2cccc(Cl)c2)CC1	31	84	-1.5	-4	i	0.94	104
Cc1ccc2cc(C#N)c(N3CCCN(S(=O)(=O)c4ccccc4)CC3)nc2c1C	12	129	-1.8	-6	i	0.86	/
Cc1nc2nc(SCC(=O)c3ccc([N+](=O)[O-])cc3)[nH]c2cc1Br	/	/	0.1	-12	i	0.98	95
Cn1cc(Br)c(C(=O)NNC(=O)c2ccc(Br)cc2)n1	-41	125	0.0	0	i	0.95	112
Cc1c(NC(=O)CCCCCN2C(=O)C3C4C=CC(C4)C3C2=O)c(=O)n(-c2ccccc2)n1C (stereo unspecified)	/	/	-0.6	2	i	0.95	106
Cc1c(NC(=O)C(C)N(c2ccccc2)S(C)(=O)=O)c(=O)n(-c2ccccc2)n1C (stereo unspecified)	/	/	/	-2	i	1	96
Cc1[nH]c2ccccc2c1SCC(=O)NNC(=O)Nc1ccc(OC(F)(F)F)cc1	/	/	/	/	i	1.2	101
Cc1cc(C)c2nc(SC(C)C(=O)NCC(=O)Nc3ccc(F)c(F)c3F)cc(C)c2c1 (stereo unspecified)	/	/	-0.9	-3	i	1	100
O=C(NCc1ccccc1)Nc1cccn(Cc2c(F)cccc2Cl)c1=O	-5	104	/	-9	i	0.85	104
CCOC(=O)C(NCc1ccc(F)cc1)(NC(=O)c1ccccc1)C(F)(F)F (stereo unspecified)	0	117	-0.3	-3	i	0.9	98
COc1ccc(S(=O)(=O)N(C)CC(=O)NCc2cccnc2)cc1	8	96	-3.0	2	i	0.95	103
Fc1ccc(Cn2nnc(-c3ccc(CN4CCOCC4)cc3)n2)cc1	-25	111	-1.0	-6	i	0.79	232
C=CCN1C(=O)C(CC(=O)Nc2ccccc2)S/C1=N/c1nccs1 (stereo unspecified)	/	/	/	/	i	0.98	98
COc1ccc(OC)c(-n2c(-c3cc(-c4ccco4)[nH]n3)n[nH]c2=S)c1	/	/	/	3	i	1.2	93
O=C(OCCCN1CCOCC1)c1ccc(O)c(O)c1	/	/	/	/	i	0.88	97
CC(C)NC(=O)Cn1cnc2c1c(=O)n(C)c(=O)n2C	0	142	-2.0	-14	i	0.95	98
COCCN(C(=S)Nc1ccc(C)cc1C)C(C)c1ccco1 (stereo unspecified)	0	72	/	0	i	0.99	397

High-throughput results as filed in PubChem BioAssay.

Rows were taken by chance; overall some 1.2% were active at least once.
